# Source: PubChem
# Ecoli growth – blocks Escherichia coli growth; OD600, 23 h; stronger effect = lower value; OD600 absorbance (concentration not given with the values); 330,000 compounds, 0.21% hits;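 active = OD600 absorbance below the run mean of sample wells minus 3.6 SD, in any replicate, cut at about 0.56 in these data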;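 also: stock transfer was 300 nL into about 60 µL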
# MLL AF4-AF9 inh – MLL-AF4/AF9 protein interaction inhibition | 350,000 compounds, 0.47% hits | AlphaScreen, biotin-AF4 peptide binding to FLAG-AF9 | inhibition, % at 10 µM | P42568;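 active = every replicate reaching a set inhibition limit, whatever the replicate mean, cut at about 25% in these data; inconclusive = mean inhibition reaches that limit but some replicates miss it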;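 also: 0% = plate neutral control median and 100% = total signal loss; the record names both 10 and 1 µM as test concentration; the first replicate is given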
# HNF4A DNA FP – change in binding of human HNF4 alpha to DNA | P41235 | HNF4a-FITC DNA binding, fluorescence polarization, 1 h | activity change, % at 10 µM | 360,000 compounds, 0.3% hits | AID 1224865; in the data active = activity change above about 30%, passing the limit was not always enough;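 also: controls were the assay level and a saturating level of protein; the project sought stronger binding though the title names inhibitors; some compounds called inactive have numbers as strong as hits; positive values seem to mean higher polarization but the record does not say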
# Target sequence (P41235 whole entry, looked up): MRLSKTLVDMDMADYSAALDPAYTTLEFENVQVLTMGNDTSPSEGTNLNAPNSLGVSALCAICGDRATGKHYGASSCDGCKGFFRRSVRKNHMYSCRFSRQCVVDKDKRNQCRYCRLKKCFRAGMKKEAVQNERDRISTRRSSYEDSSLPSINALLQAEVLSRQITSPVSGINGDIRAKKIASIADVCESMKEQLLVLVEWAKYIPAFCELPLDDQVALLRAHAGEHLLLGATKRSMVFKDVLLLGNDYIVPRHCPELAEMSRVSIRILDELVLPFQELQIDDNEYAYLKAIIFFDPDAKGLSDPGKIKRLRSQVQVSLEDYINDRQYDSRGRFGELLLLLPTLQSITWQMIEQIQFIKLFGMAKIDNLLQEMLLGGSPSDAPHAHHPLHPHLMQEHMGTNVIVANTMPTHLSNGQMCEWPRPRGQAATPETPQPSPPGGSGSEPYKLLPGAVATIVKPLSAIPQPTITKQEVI
# UCH37 DUB inh – human UCH37 deubiquitinating enzyme inhibition; Q9Y5K5; purified proteasome/UCH37, Ub-AMC cleavage fluorescence; inhibition, % (test concentration not listed); 330,000 compounds, 0.33% hits; AID 588478;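 active = mean of two replicates above 20%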;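 also: 0% = compound-free wells with enzyme and 100% = wells lacking proteasome; stock transfer was 100 nL into about 20 µL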
# Target sequence (Q9Y5K5 whole entry, looked up): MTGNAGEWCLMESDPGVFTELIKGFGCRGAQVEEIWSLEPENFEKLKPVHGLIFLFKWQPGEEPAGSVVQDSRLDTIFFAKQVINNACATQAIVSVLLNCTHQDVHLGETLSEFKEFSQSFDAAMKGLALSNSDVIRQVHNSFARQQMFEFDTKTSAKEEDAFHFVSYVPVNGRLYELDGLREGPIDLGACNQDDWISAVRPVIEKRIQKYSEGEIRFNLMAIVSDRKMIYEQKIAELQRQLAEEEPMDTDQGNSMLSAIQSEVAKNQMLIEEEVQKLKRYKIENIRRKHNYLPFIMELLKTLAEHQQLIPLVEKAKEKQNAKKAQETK
#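 Material: human UCH37 enzyme supplied as purified proteasome complex / Amount: 0.15 nM proteasome as dispensed / Buffer or medium: pH 7.4 Tris-HCl (50 mM) with ovalbumin, ATP-MgCl2, DTT / Times: preincubation 30 min, reaction 25 min, room temperature / Technique: AMC fluorescence from Ub-AMC cleavage, excitation 355 nm, emission 460 nm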
# FGF22 binding – binders of recombinant human FGF22 by thermal shift; Q9HCT0; 340,000 compounds, 1.5% hits; calls only at 9.99 µM; SYPRO orange fluorescence; percent of sucrose octasulfate shift, DMSO zero;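 active = melting point raised past a set limit in the mean and every replicate; inconclusive = no clear call; three in four hits are not shown here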
# Target sequence (Q9HCT0 whole entry, looked up): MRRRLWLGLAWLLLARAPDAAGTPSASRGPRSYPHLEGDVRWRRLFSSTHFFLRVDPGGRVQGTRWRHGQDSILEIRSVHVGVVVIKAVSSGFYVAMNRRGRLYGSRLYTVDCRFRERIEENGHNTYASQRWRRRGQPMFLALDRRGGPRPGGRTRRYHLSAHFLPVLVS
# Vif A3G – HIV-1 Vif–A3G interaction blockers – biochemical, TR-FRET, GST-Vif 1-94, biotin-A3G peptide, dose response retest, primary screen (AID 1117319); inhibition, %, or IC50 in µM where a hit was titrated; TR-FRET GST-Vif / biotin-A3G peptide binding; higher % means a stronger effect; test concentration not given here; strong numbers were not always called active; 260,000 compounds, 0.57% hits;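 active = above the screen mean plus three standard deviations and confirmed in dose response; inconclusive = results disagree or hit not tested in dose response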;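 also: Vif residues 1-94 fused to GST binding biotinylated APOBEC3G peptide 110-148; 0% = full assay without inhibitor and 100% = GST in place of GST-Vif; retest series ran down from 100 µM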
# RanGTP-Imp inh – disruptors of Ran-importin-beta complex formation – biochemical, FRET, CFP-Ran, YFP-importin-beta, homogeneous, primary screen; inhibition, % (test concentration not listed); AID 2216; cell-free CFP-Ran/YFP-importin-beta FRET ratio; 300,000 compounds, 1.1% hits;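 active = most replicates above 15%; inconclusive = exactly half above 15%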;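 also: 0% = DMSO wells and 100% = Ran loaded with GDP instead of GTP; wells of about 40 µL received 100 nL stock; the first replicate is given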
# Active calls of the source: *; i = inactive; ? = inconclusive; · = no result given; & = joins results of further samples. The list is partial; rates above refer to the full screens.
SMILES,Ecoli growth,MLL AF4-AF9 inh,HNF4A DNA FP,UCH37 DUB inh,FGF22 binding,Vif A3G,RanGTP-Imp inh
C[C@H](CO)N1C[C@H](C)[C@@H](CN(C)CC2CC2)Oc2c(NS(=O)(=O)c3ccccc3)cccc2C1=O,·,-1.0&-7.6,-1.6,0.0,i,·,·
CC(=O)OC1CCC2(C)C(CCC3C2CC(=NO)C2(C)C(C(C)OC(C)=O)CCC32)C1 (stereo not given),·,-3.5,-1.8,·,i,-7%,·
Fc1ccc(NC(=S)Nc2ccc(Cl)cc2)cc1,0.52*,-7.1,-1.5,6.1,i,-1%,-1.2
Cc1ccc(C)c(S(=O)(=O)N2CCN(c3ncccn3)CC2)c1,0.69,-3.5,2.2,3.0,i,6%,1.5
COC(=O)c1c(C)[nH]c(C(=O)COC(=O)CCNS(=O)(=O)c2cccc(C(F)(F)F)c2)c1C,0.68,-2.7,1.0,0.6,i,·,·
O=C(O)c1ccccc1-c1ccccc1C(=O)NCc1cccc(C(F)(F)F)c1,·,-18,-1.6,·,i,-3%,-0.4
CN(C)c1ccc(C(=O)N=c2sccn2C)cc1[N+](=O)[O-],0.67,1.9,6.6,7.1,i,-7%,-2.5
CCOC(=O)c1cc2c(=O)[nH]c(C(Cl)(Cl)Cl)nc2o1,0.65,-3.3,0.3,2.7,i,5%,1.7
COc1ccc(CCNc2oc(-c3ccc(C)cc3)nc2C#N)cc1OC,0.69,1.1,2.4,-10,i,-7%,6.1
O=C(CCN1CCCC1=O)NC1CCCc2c1cnn2-c1ccccc1F (stereo not given),0.67,-4.1,-0.4,-0.4,i,·,-0.5
CCCS(=O)(=O)c1ccc(COC(=O)c2cccc(NC(=O)C(C)C)c2)cc1,0.7,0.5,0.1,-1.2,i,-3%,?
NC(=O)CSc1nnc(-c2ccncc2)o1,0.67,1.5,-2.9,0.3,i,26%,-0.9
CC1(C(=O)NCc2ccccc2)CSCC(=O)N1CCCn1ccnc1 (stereo not given),·,-0.3,0.3,·,i,·,·
O=C(NC1CC1)c1sc2cc(F)ccc2c1Cl,0.69,-1.7,2.8,2.4,i,-5%,·
Cc1nc2ccc(NC(=O)CSc3nnc(C)s3)cc2[nH]1,0.66,-3.4,1.3,2.3,i,·,1.3
CN(C)CCOC(=O)c1sc2ccccc2c1Cl,0.7,-1.4,0.1,1.9,i,2%,-0.2
O=C1NCCN(Cc2ccc(Cl)c(F)c2)C1CC(=O)N1CCc2ccccc2C1 (stereo not given),0.7,-1.1,2.3,-16,i,4%,-5.0
CC(C)CCNc1nc2ccccc2nc1NS(=O)(=O)c1cccs1,0.66,-11,-0.9,-37,i,-11%,2.8
CC[C@H](C)[C@@H](N)C(=O)NC[C@H]1O[C@@H](n2cnc3c(=O)[nH]c(N)nc32)[C@H](O)[C@@H]1O,·,-0.1,-0.4,·,i,·,·
COc1ccccc1NC(=O)c1sc2nc3n(c(=O)c2c1C)CCC3,0.69,-1.2,4.9,-0.9,i,-23%,-0.8

# Ecoli growth, hit marks shown above.
SMILES,Ecoli growth,MLL AF4-AF9 inh,HNF4A DNA FP,UCH37 DUB inh,FGF22 binding,Vif A3G,RanGTP-Imp inh
Fc1ccc(NC(=S)Nc2ccc(Cl)cc2)cc1,0.52*,-7.1,-1.5,6.1,i,-1%,-1.2

# (further entries)
SMILES,Ecoli growth,MLL AF4-AF9 inh,HNF4A DNA FP,UCH37 DUB inh,FGF22 binding,Vif A3G,RanGTP-Imp inh
COc1cc(C(=O)NC2CC3CCCC(C2)N3CC(=O)Nc2ccccc2)cc(OC)c1OC (stereo not given),0.7,·,-0.8,7.0,·,-3%,2.6
COc1ccc(CC(=O)Oc2ccc(C)cc2C)cc1,0.71,-2.4,-0.8,3.7,i,·,-1.0
O=S(=O)(/C=C/c1ccccc1)N1CCN(c2ccccc2)CC1,0.79,·,2.4,3.7,·,21%,-2.0
O=C(O)Cc1ccc2oc(-c3cccnc3)nc2c1,0.72,0.1,2.4,2.7,i,23%,3.5
CCCCC(=O)N(C)c1c(CC)nc2c(OCC3CCCCC3)cccn12,·,1.9,2.8,·,i,·,·
CCc1cccc(CC)c1N1C(=O)CSCC1=O,·,-2.4,3.2,·,i,-2%,·
Cc1[nH]c(=O)[nH]c(=O)c1S(=O)(=O)Nc1ccc(F)cc1F,0.7,-4.0,0.3,2.9,i,-3%,-0.1
CC1CN(C(=O)Nc2ccc3c(c2)OCO3)CC(C)O1 (stereo not given),0.67,·,2.8,3.9,·,0%,?
CCOc1ccc(NC(=O)C/C(N)=N/O)cc1,0.65,·,3.5,1.9,·,8%,-1.7
O=c1[nH]c(/C=C/c2ccccc2OC(F)F)nc2c1cnn2-c1ccccc1,0.73,-4.7,2.0,-172,i,0%,6.2
O=C(Cn1[nH]c(=O)c2ccccc2c1=O)NCCN1C(=O)S/C(=C\c2ccccc2)C1=O,0.65,3.2,8.2,-11,i,·,·
Cc1ccc(C)c(-n2nnnc2Sc2nc([N+](=O)[O-])nn2C)c1,0.67,·,-3.3,1.7,·,?,-0.7
O=C1C2C3C=CC(C3)C2C(=O)N1Nc1ccc([N+](=O)[O-])cc1[N+](=O)[O-] (stereo not given),0.65,-5.2,-1.2,7.9,i,·,?
CNS(=O)(=O)c1cccc(C(=O)OCc2cc(C(C)=O)ccc2OC)c1,0.69,-0.7,1.6,3.9,i,·,7.0
O=[N+]([O-])c1ccc(CSC2=NCCS2)cc1,·,2.7,1.9,·,i,6%,2.6
N#C/C(=C(/O)c1ccco1)c1nc2ccccc2[nH]1,0.72,1.0,-0.3,2.4,i,-1%,4.0
CCCCSc1nnc(NC(=O)CCc2ccccc2)s1,0.72,·,-4.2,4.4,·,-4%,-1.1
COc1ccc(CNC(=O)C[C@H]2C(=O)N(c3ccccc3)C[C@@H]2Cc2ccccc2)cc1,0.74,0.6,3.5,-6.0,i,·,1.1
CC(C)C[C@H]1CN=C(N(C)C)N1CC1CCCCCC1,0.71,-2.2,-3.2,2.5,i,·,·
Cc1ccc(CNC(=O)c2ccc(Cn3nc(C)c(Cl)c3C)o2)cc1,0.68,·,-8.5,0.9,·,9%,-2.0
O=C1OC(Nc2ccc(F)c([N+](=O)[O-])c2)c2ccccc21 (stereo not given),0.69,-0.5,1.9,3.8,i,·,1.5
COc1ccc(N(C(=O)c2ccccc2C)S(=O)(=O)c2cccs2)cc1,0.71,·,0.2,5.8,·,-4%,4.2
Cc1cc(C)nc(Sc2ncnc3c2oc2ccccc23)n1,0.73,·,-0.3,5.9,·,-5%,-2.1
Cc1ccc2nc(N3CCN(S(=O)(=O)c4ccc(C)c(Cl)c4)CC3)c(C#N)cc2c1,0.75,·,1.2,-34,·,-357%&-150%,11
CC1=NN(C(N)=S)C(=O)C1N=Nc1cc(Cl)ccc1Cl (stereo not given),0.69,3.7,-5.5,8.2,i,·,4.4
CCc1cc(OCCN(C)C)ccc1Cl,0.71,0.2,-1.0,0.7,i,11%,-0.4
Cc1cccc(C(=O)N2CCC(Cc3ccccc3)CC2)c1[N+](=O)[O-],0.64,·,-2.5,2.3,·,·,1.0
COc1ccc(NC(=O)C2Cc3c(-c4cccc(C(C)=O)c4)ccnc3O2)cc1 (stereo not given),·,-0.1,1.5,·,i,·,·
N#Cc1ccc(NC(=O)CSc2n[nH]c(=O)n2C2CC2)cc1,0.65,-3.6,-1.9,2.4,i,·,·
CC(=O)NC1(c2ccccc2)CCN(C(=O)N2CCOCC2)CC1,0.66,·,3.9,0.4,·,0%,-4.5
CC(C)CC(C(=O)NC(C)(C)C)N(Cc1cccs1)C(=O)c1snc(C(N)=O)c1N (stereo not given),0.68,2.6,-0.6,-11,·,3%,2.2
CCOC(=O)C1CCN(Cc2ccc(OC)cc2OC)CC1,0.7,·,-1.3,5.0,·,3%,6.1
CCc1c(C)nc(Nc2nc(C)c3cc(OC)ccc3n2)[nH]c1=O,0.71,·,2.2,2.8,·,-3%,-1.1
COc1ccc(-c2cccc(C(=O)NCC(=O)O)c2)cc1,0.69,-11,0.9,3.8,i,5%,4.3
O=C(NCCS(=O)(=O)NCC1CCCO1)c1ccccc1 (stereo not given),0.67,0.6,-2.2,2.0,i,-8%,?
CCOC(=O)c1c(C)[nH]c(C(=O)OCC(=O)N2CCCC2=O)c1C,0.65,1.6,3.3,-0.1,·,-3%,0.1
O=c1[nH]cnc2c1ncn2[C@@H]1C[C@@H](O)[C@H](CO)O1,0.61,-2.9,-1.4,-0.6,i,-4%,3.6
O=c1[nH]ncc(N2CCN(Cc3ccccc3)CC2)c1Cl,0.66,-0.6,1.9,5.6,i,1%,-0.4
Cc1csc(SC(C)C(=O)Nc2ccc(S(=O)(=O)N3CCCC3)cc2)n1 (stereo not given),0.69,·,0.3,1.4,·,-1%,2.2
N#C/C(=C/c1ccc(Sc2nc3ccccc3[nH]2)o1)c1ccccc1F,0.69,·,1.4,-9.5,·,-1%,?
CC(CCc1ccccc1)NC(=O)C1CCN(S(=O)(=O)N2CCCCC2)CC1 (stereo not given),0.73,·,-4.0,1.4,·,11%,4.9
CCCc1nc(SCC(=O)Nc2ccccc2OC)c2c(=O)n(C)c(=O)n(C)c2n1,0.71,-5.3,2.5,1.3,i,2%,0.7
CC(C)(C)OC(=O)N/N=C\c1ccc([N+](=O)[O-])s1,·,5.1,-0.5,·,i,-4%,-1.4
c1ccc2c(c1)ncn2CCCOc1ccc2c(c1)CCC2,0.66,·,1.1,2.0,·,2%,1.2
O=C(CCNC(=O)c1ccccc1Cl)Nc1nc(-c2ccc3ccccc3c2)cs1,0.75,1.9,-1.2,3.8,i,-12%,-6.4
O=S(=O)(NCc1ccccn1)C(F)(F)F,0.68,-0.5,3.2,-0.8,i,·,-2.6
COc1cc(NC(=O)CSc2nnc3c(C)cc4c(C)ccc(C)c4n23)c(C(=O)O)cc1OC,0.64,-2.2,-1.8,5.9,i,·,-1.7
O=c1c2cc3c(cc2[nH]c(=S)n1C1CCN(Cc2ccccc2)CC1)OCO3,0.7,2.5,7.0,4.1,i,27%,?
COc1ccc(-c2csc(N3C(=O)C4C5c6ccccc6C(c6ccccc65)[C@@H]4C3=O)n2)cc1 (stereo not given in full),0.67,·,0.5,3.7,·,·,3.3
c1ccc2c(c1)CNC1(CCCCC1)C2,0.66,·,6.0,1.5,·,7%,7.2
O=S(=O)(Nc1cccnc1)c1ccc(Br)c2ccccc12,0.69,-0.7,0.9,3.8,i,-20%,-0.8
CCOC(=O)[C@@H]1[C@H]2COc3cc(OC)ccc3[C@H]2N2C(=O)N(c3ccc(Br)cc3)C(=O)[C@]12C,·,·,-3.2,3.2,i,·,·
O=C(Cc1ccc([N+](=O)[O-])cc1)NCCS(=O)(=O)N1CCN(c2ccccc2)CC1,·,-0.3,0.4,·,i,1%,·
CC1(C)CC(N2CCN(Cc3ccccc3)CC2)=CC(=[N+]2CCCCC2)C1,0.65,2.0,-0.9,12,·,12%,1.7
CCN(CC(=O)Nc1ccccc1C(F)(F)F)C(=O)COc1cccc2c1OC(C)(C)C2,0.64,-1.3,-0.6,1.8,i,-3%,0.8
O=C(O)C(Cc1ccccc1)N1C(=O)CCC1=O (stereo not given),0.66,2.5,0.5,2.6,i,-3%,?
S=C(NCC1COc2ccccc2O1)Nc1ccccc1 (stereo not given),0.66,-0.7,-0.5,3.3,i,·,-1.2

# Some values from above.
# Value for COc1ccc(CCNc2oc(-c3ccc(C)cc3)nc2C#N)cc1OC in Ecoli growth: 0.69
# Value for CC(C)C[C@H]1CN=C(N(C)C)N1CC1CCCCCC1 in MLL AF4-AF9 inh: -2.2
# Value for O=S(=O)(/C=C/c1ccccc1)N1CCN(c2ccccc2)CC1 in RanGTP-Imp inh: -2.0
